Bioassay records (PubChem BioAssay)
Rango complex inh: prevents formation of the Rango-importin beta complex; Q14974; Rango CFP/YFP FRET sensor + importin beta, 45 min; Potency, µM (top dose mostly 92.2 µM), inactives show top-dose inhibition of complex formation; actives 0.031% (n = 340,000); active = rising FRET ratio curve, often small or poorly fitted; inconclusive = mostly compound fluorescence or quenching in the first reads; inactive = flat curves in all reads;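 further: potency means the concentration at half of the fitted maximal effect; 0% = DMSO wells and 100% = buffer wells lacking importin beta; nearly all actives have a fitted effect of over 15% in size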
Target sequence (Q14974 whole entry, looked up): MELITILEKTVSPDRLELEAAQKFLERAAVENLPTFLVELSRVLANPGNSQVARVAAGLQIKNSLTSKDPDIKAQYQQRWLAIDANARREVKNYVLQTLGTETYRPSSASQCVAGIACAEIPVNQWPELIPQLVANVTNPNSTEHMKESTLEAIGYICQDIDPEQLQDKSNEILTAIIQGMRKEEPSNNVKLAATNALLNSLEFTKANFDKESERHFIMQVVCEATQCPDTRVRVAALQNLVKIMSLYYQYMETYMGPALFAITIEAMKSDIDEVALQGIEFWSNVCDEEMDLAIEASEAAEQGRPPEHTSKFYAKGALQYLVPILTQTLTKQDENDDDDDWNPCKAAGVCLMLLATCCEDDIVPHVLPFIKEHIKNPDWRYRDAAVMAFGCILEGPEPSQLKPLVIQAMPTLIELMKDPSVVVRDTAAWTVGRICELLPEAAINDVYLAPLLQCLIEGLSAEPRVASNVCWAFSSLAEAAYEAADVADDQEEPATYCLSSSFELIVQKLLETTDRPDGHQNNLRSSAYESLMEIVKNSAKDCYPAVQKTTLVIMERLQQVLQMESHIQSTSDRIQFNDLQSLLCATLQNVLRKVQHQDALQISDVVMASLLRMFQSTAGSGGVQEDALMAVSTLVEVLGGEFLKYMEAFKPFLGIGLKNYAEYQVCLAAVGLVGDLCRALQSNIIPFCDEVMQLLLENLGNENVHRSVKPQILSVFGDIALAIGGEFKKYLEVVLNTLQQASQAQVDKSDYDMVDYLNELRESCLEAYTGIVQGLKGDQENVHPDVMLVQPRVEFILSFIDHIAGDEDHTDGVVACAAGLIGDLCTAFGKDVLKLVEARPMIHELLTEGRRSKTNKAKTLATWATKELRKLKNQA
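FRET biosensor Rango (snurportin 1 IBB between N-terminal EYFP and C-terminal Cerulean), 50 nM in PBS/1 mM DTT/0.02% Tween-20/0.1% BSA, preincubated 5 min RT with compound; 0.125 microM importin beta added, 45 min RT, CFP/YFP FRET ratio read.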
miR-21 reporter: raises the signal of a miR-21 reporter; HeLa miR-21 FLuc reporter, luciferase, 48 h; Potency, µM (top dose mostly 38.3 µM), for the others: top-dose reporter change, positive = more light; 340,000 tested, under 10 active; active = well fitted rising curve with a large enough effect; inconclusive = small, poorly fitted or top-dose-only effect; inactive = no such curve, though single readings can be large or run the other way;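 further: % of control where 0% means no effect; miR-21 action dims this reporter so a rising signal means less miR-21 action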
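HeLa cells stably expressing CMV-driven firefly luciferase with a downstream miR-21 binding sequence, endogenously expressing miR-21, were treated with titrations (up to about 40uM final) for 48 hours at 37 degree Celsius. Luciferase luminescence was read after lysis.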
Rango dissoc inh: prevents RanGTP from dissociating the Rango-importin beta complex; Potency, µM (highest dose often 46.1 µM), for inactives: at the highest dose activity change, negative = inhibition; actives 0.071% (n = 340,000); O95149+P62826; AID 540253; Biochemical FRET Rango-importin beta, RanGTP-induced dissociation; active means falling FRET ratio curve, often poorly fitted, with flat reads before Ran was added; inconclusive means other falling curves, or compound fluorescence or quenching; inactive means flat or rising ratio curve;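 further: potency means the concentration at half of the fitted maximal effect; % of control where 0% means no effect; nearly all actives have a fitted effect of over 45% in size; -100% = wells without RanGTP and RCC1; the record marks most hits as doubtful in a second field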
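FRET read at 45 min, room temperature: inhibitors block the CFP/YFP signal rise when RanGTP (0.6 uM Ran, 2 mM GTP, 0.2 uM RCC1) frees Rango (0.1 uM) from importin beta (0.25 uM). Pre-read after 5 min compound exposure flags interference.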
GLA inh pH 4.5: blocks human alpha-galactosidase A at pH 4.5. P06280. 230,000 tested, under 10 active. purified enzyme, 4-MU-alpha-Gal fluorescence, pH 4.5. AID 1467. activity change, negative = inhibition, % at 105 µM; inconclusive = small, poorly fitted or top-dose-only inhibition, or a rising curve; inactive = flat fitted curve, though single readings scatter; no compound was filed as active;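 further: 0% = full activity with enzyme and -100% = basal without enzyme; dose as in the result columns while the protocol names 77 µM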
Numbers without * were called inactive; ? = inconclusive; · = not tested or not shown; & = joins results of further samples. These rows are one share of the data; rates above refer to the full screens.

canonical_smiles	Rango complex inh	miR-21 reporter	Rango dissoc inh	GLA inh pH 4.5
N#Cc1nc(-c2ccc(F)cc2)oc1N1CCN(C(=O)c2ccco2)CC1	3.5%	-5%	1%	·
O=C(CNS(=O)(=O)c1cccc2nsnc12)NC1CCCCC1	0.1%	-4%	-3%	-1
Cc1cc2c(c(=O)n1CCN(C)C)C(c1ccc(Br)cc1)C(C#N)=C(N)O2 (stereo unspecified)	2.4%	-5%	0%	1
O=C(NCc1ccc(Cl)cc1)c1ncn[nH]1	-7.7%	2%	-22%	1
O=C(CC1C(=O)NCCN1Cc1ccc(F)c(F)c1)NCCn1cccn1 (stereo unspecified)	?	1%	-16%	3
O=C(c1ccco1)N1CCN(C(=O)c2cccc3c2C(=O)N(Cc2cccnc2)C3)CC1	0.0%	0%	15%	-5
COc1ccc(B(O)O)c(CN2CCN(C(=O)OC(C)(C)C)CC2)c1	-0.4%	·	-5%	·
C=CCNC(=O)COC(=O)CCC(=O)c1cccs1	-2.2%	1%	-8%	4
CCCn1c(CCC(=O)O)ccc1-c1cccs1	?	-3%	?	-3
O=C(COc1ccccc1)NC(NC(=S)Nc1ccccc1C(=O)O)C(Cl)(Cl)Cl (stereo unspecified)	-3.0%	1%	3%	0
O=C(CCCOc1ccccc1)N1CCCc2ccccc21	-1.4%	-45%	-3%	9
CN1CC2(C(=O)c3ccccc3)CN(C)CC(C(=O)c3ccccc3)(C1)C2	-0.7%	-5%	12%	-13
O=C(Nc1ccc2c(c1)Cc1ccccc1-2)c1ccc(Br)o1	5.0%	-60%	-5%	-3
CCC1(CC)NC(=O)N(CC(=O)Nc2ccc(C)cc2C)C1=O	-2.6%	·	-1%	·
Cc1ccc(/C(O)=C2\C(=O)C(=O)N(C)C2c2ccc(Br)cc2)cc1 (stereo unspecified)	-0.7%	-3%	-1%	·
O=C(Nc1ccc2sccc2c1)c1cccc(N2C(=O)CCC2=O)c1	-0.4%	-49%	-6%	-12
Cn1c(CNC(=O)C2CCC(=O)N(CCc3cccc(F)c3)C2)nc2ccccc21 (stereo unspecified)	3.1%	-1%	-10%	·
Cc1ccc(NS(=O)(=O)c2ccc3c(c2)NC(=O)CCS3)c(Br)c1	-1.4%	5%&4%	6%	·
COC(=O)C(NC(=O)c1ccco1)(Nc1nc(C2CC2)cs1)C(F)(F)F (stereo unspecified)	-3.0%	-7%	?	-12
Cc1cc(C(=O)Cn2nc(C(=O)O)c3ccccc3c2=O)c(C)n1-c1ccc(F)cc1	0.2%	-37%	7%	-15
O=C(O)c1ccc(COc2ccc3ccccc3c2/C=C2/NC(=O)N(c3ccccc3)C2=O)cc1	-4.1%	-6%	-15%	-9
O=C(Oc1ccccc1-c1csnn1)c1cccs1	0.4%	-1%	0%	-7
Nc1ncnc(Nc2cccc(F)c2)n1	-0.4%	-20%	1%	3
CCCCn1c(SCC(=O)N2CCCC2=O)nc2cc(S(N)(=O)=O)ccc21	-0.6%	·	-6%	·
O=C(/C(=C/c1ccc(Cl)cc1)c1nc2ccccc2[nH]1)c1ccccc1	5.4%	-41%	-6%	-1
CC(=O)N/C(=C\c1ccccc1)C(=O)OCC(=O)Nc1cc(S(=O)(=O)N(C)C)ccc1Cl	-1.0%	·	-18%	·
S=C(NCc1ccccc1Cl)NC1CCCC1	0.6%	-1%	-15%	4
CCOC(=O)c1cc(C)sc1NC(=O)CSC1=NCCS1	1.6%	0%	-2%	·
CCc1ccccc1NC(=O)c1cccc(N2C(=O)C3C4CCC(C4)C3C2=O)c1 (stereo unspecified)	1.6%	-8%	-8%	-4
O=C(COc1ccccc1Cl)Nc1cc(Cl)ccc1Oc1ccccc1	-0.2%	-1%	2%	-4

Next section.
canonical_smiles	Rango complex inh	miR-21 reporter	Rango dissoc inh	GLA inh pH 4.5
Cc1ccc(CCNS(=O)(=O)c2ccc3c(c2)NC(=O)C(C)C(=O)N3)cc1 (stereo unspecified)	-0.8%	8%	25%	·
Cc1nc(N=C(N)N)nc2ccccc12	0.6%	10%	-23%	6
C=CCOC(=O)C1=C(C)N(C)C(=O)NC1c1cc2c(cc1Br)OCO2 (stereo unspecified)	-0.9%	-3%	-5%	4
COc1ccccc1NC(=O)CSc1nnc(C)s1	1.2%	-1%	4%	·
CCOc1ccccc1N1CCN(C(=O)C2CSC3(C)CCC(=O)N23)CC1 (stereo unspecified)	0.6%	·	-5%	·
CCOc1ccccc1C(=O)OCC(=O)NCc1ccc2c(c1)OCO2	-2.0%	·	4%	·
CCOc1cc(/C=C/c2nc3ccccc3c(=O)[nH]2)ccc1O	3.6%	-34%	-17%	·
COc1cc(CN(C)Cc2cc(=O)n3ccsc3n2)ccc1OC(F)F	5.2%	23%	2%	11
COc1ccc(-n2c(=S)[nH]c3ccccc3c2=S)cc1	1.6%	2%	-21%	·
COc1ccccc1-c1cn[nH]c1-c1ccc(OCC(=O)NN)cc1O	4.6%	6%	1%	·
CCN(CC)C(=O)[C@H]1CC(CC(=O)NCC23CC4CC(CC(C4)C2)C3)C(=O)N2CCc3c([nH]c4ccc(OC)cc34)[C@]12C (stereo partly specified)	4.4%	·	-4%	·
CC(C)(C)C(=O)CNS(=O)(=O)c1ccc(S(=O)(=O)NC2CC2)cc1	2.5%	0%	-12%	·
CC1CCC(Nc2nnnn2-c2ccccc2)CC1 (stereo unspecified)	0.3%	-10%	-9%	0
O=C(NC12CC3CC(CC(C3)C1)C2)C1CC(=O)N(c2ccccc2)C1 (stereo unspecified)	12%	-20%	13%	0
Nc1c(Cl)cc(S(N)(=O)=O)cc1S(N)(=O)=O	-0.6%	-1%	5%	0
C#CCn1c(=NC(=O)c2ccc(S(=O)(=O)N3CCCc4ccccc43)cc2)sc2cc(S(N)(=O)=O)ccc21	-0.2%	3%	-13%	-2
Cc1nc2nc(SCC(=O)N3CCOCC3)nn2c(C)c1Cc1c(F)cccc1Cl	-4.5%	-27%	7%	-4
O=C(C[n+]1ccccc1)c1ccc(-c2ccccc2)cc1	1.4%	-5%	5%	-19
CCOC(=O)c1cnc2ccc(OC)cc2c1Nc1ccc2c(c1)OCCO2	0.8%	14%	14%	-12
COc1ccc(C(=O)Cn2nnc(-c3ccccc3NC(=O)C(F)(F)F)n2)cc1	0.9%	-12%	6%	0
CN(C)c1ccc(NC(=O)Nc2ccc3snnc3c2)cc1	8.1%	-41%	-2%	1
Cc1ccc(NC(=S)N2CCN(C(=O)C3CCCO3)CC2)cc1 (stereo unspecified)	-6.5%	-1%	12%	-3
S=C(NCCCN1CCOCC1)N(Cc1ccccc1)Cc1ccccc1	-0.2%	-11%	-16%	·
CC(=O)c1cnc(Nc2ccccc2)s1	-2.9%	-40%	18%	-8
Cc1cccc(NC(=O)CSCC(=O)Nc2ccc(N3CCOCC3)cc2N2CCOCC2)c1	2.5%	·	3%	·
CCCC(=O)Nc1cc(-c2nc3ncccc3o2)ccc1C	2.6%	-20%	-13%	-1
O=C(Cn1cnc(S(=O)(=O)N2CCCCC2)c1)N1CCN(c2ccc([N+](=O)[O-])cc2)CC1	-3.5%	4%	-3%	·
O=C1c2ccccc2C(Nc2ccc3c(c2)OCCO3)N1Cc1ccc2c(c1)OCO2 (stereo unspecified)	10%	-25%	29%	7
O=C(Nc1cccc(NC(=O)c2cccs2)c1)c1ccc2c(c1)OCCO2	-3.2%	-25%	-12%	-21
C/C(CCC1CC(C)OC1=O)=N/Nc1nc(-c2ccccc2)cs1 (stereo unspecified)	1.2%	-28%	10%	-6

Single values from the list:
Rango complex inh result of `C#CCn1c(=NC(=O)c2ccc(S(=O)(=O)N3CCCc4ccccc43)cc2)sc2cc(S(N)(=O)=O)ccc21` reads -0.2%
miR-21 reporter result of `O=C(Cn1cnc(S(=O)(=O)N2CCCCC2)c1)N1CCN(c2ccc([N+](=O)[O-])cc2)CC1` reads 4%

The list goes on.
canonical_smiles	Rango complex inh	miR-21 reporter	Rango dissoc inh	GLA inh pH 4.5
CCCCSc1nc2sc3c(c2c(=O)[nH]1)CC(C)(CC)OC3 (stereo unspecified)	2.7%	-3%	1%	·
C(=N\N1CCOCC1)/c1nc(-c2ccccc2)n2ccccc12	2.6%	-13%	-12%	2
CCCC[C@H]1COCCS(=O)(=O)N1Cc1ccc(Br)cc1	0.5%	1%	7%	·
Cn1cc(S(=O)(=O)Nc2cccc(F)c2)c(=O)n(C)c1=O	-1.1%	4%	-1%	-1
CCOC(=O)CSc1nc(COc2ccccc2)nc2ccccc12	-0.6%	-4%	-3%	·
CSC1=N/C(=C\c2ccc(F)cc2)C(=O)S1	-0.9%	-4%	-22%	1
CCc1noc(C)c1C(=O)Nc1cc(S(=O)(=O)N2CCOCC2)ccc1OC(C)C	3.5%	·	-9%	·
CCOc1ccc(CN(C)C(=O)Cc2c[nH]c3ccccc23)cc1	-1.5%	-6%	?	·
COc1ccccc1CNc1ccc(N2CCCCC2)cc1	?	-11%	4%	1
CCOc1cc(NC(=O)c2ccco2)c(OCC)cc1NC(=O)Cc1ccc(OC)c(OC)c1	-7.3%	-11%	11%	4
O=C(Cn1c(=O)n(CC(=O)N2CCCCC2)c(=O)c2sccc21)NCc1ccccc1	0.3%	-6%	-10%	·
COc1ccccc1C1Nc2ccccc2NC2=C1C(=O)CC(C)(C)C2 (stereo unspecified)	-4.0%	13%	0%	·
CC(C)NC(=O)CSc1nnc(-c2ccc(S(=O)(=O)N3CCCC3)cc2)n1CC1CCCO1 (stereo unspecified)	-0.3%	-11%	7%	-6
Cc1nn(-c2ccccc2)c(N2CCCC2)c1/C=N/n1cnc2scc(-c3ccccc3)c2c1=O	-15%	0%	-3%	-2
CC(C)(C)c1ccc(C2=CSC3=NCCN23)cc1	-4.7%	16%	0%	·
O=C(Nc1ccccc1C(=O)NCCCn1ccnc1)c1ccccc1	3.2%	7%	8%	8
CC1CCN(CCCNS(=O)(=O)c2ccc3c(c2)CCN3C(=O)C2CC2)CC1	0.4%	-1%	5%	·
CCOC(=O)c1ccc(N2Cc3ccccc3C2=NC(=O)c2cccs2)cc1	0.1%	-72%	-9%	6
Cc1ccc(/C=N/Nc2nnc(Cl)c3ccccc23)cc1	-2.8%	-70%	8%	1
COc1ccccc1CNC(=O)c1cc2ccccc2o1	-1.9%	-12%	1%	·
CCCCn1c(N)c(N(CCOC)C(=O)C2CCN(S(=O)(=O)c3ccc(C)c(C)c3)CC2)c(=O)[nH]c1=O	3.0%	·	13%	·
COc1nc(-c2ccccc2)ccc1-c1noc(-c2cccnc2)n1	-1.0%	-14%	2%	?
COC(=O)c1ccccc1NC(=S)NC(=O)c1ccc2ccccc2c1	0.3%	-21%	32%	-1
COc1ccc2sc(-c3ccccc3OC)c(C#Cc3cncn3C)c2c1	-3.0%	·	-3%	·
O=C1CCC(=O)O1	3.6%	·	-5%	·
COc1ccccc1C(=O)NCCC(=O)N(Cc1ccco1)Cc1cccs1	-0.1%	-5%	14%	·
CCN(C(=O)COC(=O)c1cccs1)c1c(N)n(Cc2ccccc2)c(=O)[nH]c1=O	0.0%	·	-1%	·
COc1cc(/C=C2\NC(=O)NC2=O)cc(Br)c1OC	-0.3%	-12%	-5%	·
CCC(=O)c1cn(CC(=O)Nc2ccc(OC)cc2)c2ccccc12	1.7%	0%	-21%	·
CCOC(=O)c1c(C)nc(-c2ccccc2)nc1N	-5.3%	-66%	7%	0

Carrying on:
canonical_smiles	Rango complex inh	miR-21 reporter	Rango dissoc inh	GLA inh pH 4.5
Cc1csc(Nc2nc(N)c(C(=O)Nc3ccccc3)o2)n1	3.9%	-33%	-2%	·
COc1ccc(N2CCN(c3oc(-c4ccc(OC)c(OC)c4)nc3C#N)CC2)cc1	-1.5%	-3%	4%	0
O=C(c1ccc(F)c(F)c1)N1CCCc2ccccc21	-0.4%	-1%	7%	·
CC(C)(Oc1ccc(Cl)cc1)C(=O)Nc1ccc(S(=O)(=O)Nc2ncccn2)cc1	3.4%	-5%	38%	·
